TRPV1 PAM: HTS Assay for Compounds that Act as Potentiators of the Vanilloid Receptor 1; Transient receptor potential cation channel subfamily V member 1 (Homo sapiens), Q8NER1; TRPV1-expressing cells, Fluo-8 calcium influx, capsaicin EC20 potentiation; host cell line not named in the record; control for the full effect not named in the record; potentiation, % at 8.33 µM; 0.02% of 320,000 active; active means potentiation above 80%; inconclusive means 30% to 80%; inactive means below 30%; further: 0% is about no effect
Target sequence (Q8NER1 whole entry, looked up): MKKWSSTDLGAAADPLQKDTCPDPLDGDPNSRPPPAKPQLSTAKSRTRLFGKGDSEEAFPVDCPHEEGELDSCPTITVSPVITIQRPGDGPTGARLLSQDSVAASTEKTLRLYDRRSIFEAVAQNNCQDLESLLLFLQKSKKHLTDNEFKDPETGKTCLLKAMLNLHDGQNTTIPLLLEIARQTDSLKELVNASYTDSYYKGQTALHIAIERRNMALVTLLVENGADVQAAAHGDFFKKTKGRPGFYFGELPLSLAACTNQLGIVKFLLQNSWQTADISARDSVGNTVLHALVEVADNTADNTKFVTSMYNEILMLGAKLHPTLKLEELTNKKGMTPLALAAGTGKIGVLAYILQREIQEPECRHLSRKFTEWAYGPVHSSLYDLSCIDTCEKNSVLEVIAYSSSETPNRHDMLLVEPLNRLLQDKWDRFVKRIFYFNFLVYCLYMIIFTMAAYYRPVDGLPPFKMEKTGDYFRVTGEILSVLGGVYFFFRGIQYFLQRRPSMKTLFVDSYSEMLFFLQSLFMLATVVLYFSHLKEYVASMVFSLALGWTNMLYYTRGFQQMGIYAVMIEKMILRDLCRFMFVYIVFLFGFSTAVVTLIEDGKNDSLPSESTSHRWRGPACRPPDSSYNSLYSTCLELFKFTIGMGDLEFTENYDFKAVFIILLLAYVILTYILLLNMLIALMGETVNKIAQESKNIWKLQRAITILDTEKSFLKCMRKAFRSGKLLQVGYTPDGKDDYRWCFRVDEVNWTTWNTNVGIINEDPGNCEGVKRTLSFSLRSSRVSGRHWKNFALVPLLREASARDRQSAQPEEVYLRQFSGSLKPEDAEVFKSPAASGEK
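Fluo-8 calcium influx in TRPV1-expressing cells, kinetic read (ex 480/em 520 nm). Compound added and read 3 min for agonist activity, followed by capsaicin at EC20 final and 2 min further read for enhancement.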
Sfp inh: qHTS Assay for Inhibitors of Bacillus subtilis Sfp phosphopantetheinyl transferase (PPTase); 4'-phosphopantetheinyl transferase ffp (Bacillus subtilis), Q9F4F7; Biochemical Sfp PPTase activity, qHTS; Potency, µM, for the others: max response, negative = inhibition, hits mostly inhibitors; 3.5% of 310,000 active; active means well fitted inhibition curve with a large enough effect; inconclusive means small, poorly fitted or top-dose-only effect, or another doubt; inactive means no such curve, though single readings can be large or run the other way;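 further: the enzyme is Sfp with the accession as filed and its product quenches rhodamine fluorescence; potency means the concentration at half of the fitted maximal effect; 0% = enzyme reaction without inhibitor and -100% = no enzyme wells; top concentration of the series not given in the record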
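With Hepes-Na pH 7.6 buffer containing 10 mM MgCl2, Sfp (15 nM) modified BHQ-2-YbbR (12.5 uM) using rhodamine-CoA (5 uM). Two reads 30 minutes apart at 525/598 nm yielded each well's rate.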
PINK1 expr mod: A Quantitative High throughput Screen to Identify Chemical Modulators of PINK1 Expression; PINK1 immunofluorescence, high-content cytometry, 24 h; Potency, µM (series often up to 76.6 µM), for inactives: at the highest dose activation (PINK1 increase), actives largely listed as activators; 0.2% of 410,000 active; active = well fitted activation curve with a large enough effect; inconclusive = small, poorly fitted or top-dose-only effect; inactive = flat fitted curve, though single readings scatter; cell line not stated here;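 further: potency means the concentration at half of the fitted maximal effect; % of control where 0% means no effect; nearly all actives have a fitted effect of over 65% in size; a mitochondrial uncoupler was the plate control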
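Compound titrations (5 concentrations, 24 h) on a stable cell line; DMSO and CCCP controls. Endpoint: fixed-cell PINK1 immunofluorescence with mitochondrial, cell and nuclear markers, scanned by microplate cytometer.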
TRPML1 ag: qHTS for Agonists of the Human Mucolipin Transient Receptor Potential 1 (TRPML1). 0.12% of 410,000 active. activation, % (no concentration beside the values). TRPML1-expressing cells, Ca2+ dye fluorescence, FDSS; host cell line not named in the record; reference of the full effect not given here; in the data active = activation above about 50%; inconclusive = about 30% to 50%; inactive = below about 30%; further: 0% is about no effect; the text of the record puts the active cut at 80%
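Cells: TRPML1-DL, 1X Tet inducer, ~16 h at 37 degrees C/5% CO2. Dye: ABD Ca8 no-wash + quencher, 45-90 min RT. Read: 10 s baseline, compound add, 110 s agonist phase; 54-4 EC80 (4uM final), 110 s antagonist phase.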
Menin MLL FP FL: qHTS Assay for Inhibitors Targeting the Menin-MLL Interaction in MLL Related Leukemias: Competition With Fluorescein Labeled MLL-derived Peptide; Fluorescence polarization, fluorescein-MLL peptide displacement from menin; 290,000 tested, under 10 active; FP activity change, % at 61.4 µM; inconclusive = falling polarisation curve, or a change in total fluorescence; inactive = total fluorescence flat and polarisation flat or rising; no compound was filed as active; the % refers to the polarisation; negative = inhibition;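 further: % of control where 0% means no effect; inhibitors lower the polarisation; unlabelled MLL peptide was the positive control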
ClpP mod: qHTS Assay for Activators of ClpP; Potency, µM (top dose mostly 57.5 µM), without a hit: at the highest dose activity change, negative = active; purified B. subtilis ClpP, FRET peptide cleavage, 20 min; ATP-dependent Clp protease proteolytic subunit (Bacillus subtilis (strain 168)), P80244; 1.9% of 340,000 active; AID 651965, 2013; active = well fitted falling curve with a large enough effect; inconclusive = small, poorly fitted or top-dose-only effect; inactive = no such curve, though single readings can be large or run the other way; further: potency means the concentration at half of the fitted maximal effect; the source files actives as falling curves though it sought activators and does not explain the sign; nearly all actives have a fitted effect of over 65% in size; many hits overshoot -100%
Target sequence (P80244 whole entry, looked up): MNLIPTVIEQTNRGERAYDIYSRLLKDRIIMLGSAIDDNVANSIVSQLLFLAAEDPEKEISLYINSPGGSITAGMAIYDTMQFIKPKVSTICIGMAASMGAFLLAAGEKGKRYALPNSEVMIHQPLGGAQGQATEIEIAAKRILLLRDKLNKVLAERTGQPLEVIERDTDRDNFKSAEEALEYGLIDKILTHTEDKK
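FRET quenching reversal measured ClpP activation: 10 microg/mL B. subtilis ClpP at pH 8 with the FRET-FV decapeptide, read at 430 nm after 320 nm excitation. The 20-min minus 0-min signal was scaled between DMSO/no-enzyme wells and ADEP (5.8 microM final).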
TRPML1 blocker: qHTS for Inhibitors of the Human Mucolipin Transient Receptor Potential 1 (TRPML1); Mucolipin-1 (Homo sapiens), Q9GZU1; TRPML1-inducible cells, Ca2+ dye fluorescence, FDSS; stronger effect = lower value; inhibition of EC80 agonist-evoked calcium signal; activity change, negative = inhibition, % (no concentration beside the values); 0.02% of 390,000 active; in the data active means activity change below about -50%; inconclusive means about -30% to -50%; inactive means above about -30%;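 further: stimulus is agonist 54-4 at its EC80 concentration; on the % scale 0 is the no-effect control and ±100 the full control effect; compound concentration not given in the record; the text of the record puts the active cut at -80%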
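Tet-induced TRPML1-DL cells loaded with Ca8 no-wash calcium dye were read kinetically on FDSS. Compound addition was followed by EC80 agonist 54-4 (4 uM final); inhibition was read over 110 s.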
Active calls of the source: *; ? = inconclusive; . = no result given; & = joins results of further samples; [ ] = another dose, or the depositor's remark.

Value order – Sfp inh | TRPML1 blocker | PINK1 expr mod | ClpP mod | TRPV1 PAM | Menin MLL FP FL | TRPML1 ag
[1] COC(=O)C(Cc1ccccc1)NS(=O)(=O)c1ccc(F)cc1Br (centres undefined)
 : 2%&0%&-3% | -17&41&-10 | -0.8% | -1.1% | 12 | -2.5&2.0&1.8 | 2.5&0.9&2.5
[2] O=C(O)CC1(CC(=O)Nc2ccc(F)c(Cl)c2)CCCCC1
 : 18% | 11 | 1.4% | . | 13 | 3.3 | 1.2
[3] N/C(=N\OC(=O)Oc1ccccc1)c1ccc(Cl)cc1
 : 25% | 3 | -1.4% | 0.3% | 2 | 1.2 | 3.0
[4] CC(CCn1cccn1)NC(=O)c1cc(COc2ccc(F)cc2Cl)on1 (centres undefined)
 : 10% | -27 | 0.1% | 0.8% | -7 | 2.2 | 0.2
[5] Cc1ccccc1C(=O)Nc1nncs1
 : 14% | -15 | 0.6% | -0.8% | 3 | 1.1 | 1.1
[6] Cc1ccc(Oc2cnn(-c3ccccc3)c(=O)c2Br)cc1
 : 5% | 13 | 2.9% | . | -31 | 5.0 | 0.8
[7] COc1ccc(N2C(=NC(=O)C(C)Oc3ccccc3)SC3CS(=O)(=O)CC32)cc1 (centres undefined)
 : 18% | 1 | 0.9% | -0.3% | 13 | . | -0.8
[8] Cc1cccc(N(C(=O)Cc2cccs2)C(C(=O)NC2CCCC2)c2ccsc2)c1 (centres undefined)
 : 15% | 1 | 22%[38.3 µM] | 0.9% | -14 | 0.8 | 0.1
[9] O=C(Nc1cccc(Cl)c1)C1CCN(c2nc3ccccc3nc2C(F)(F)F)CC1
 : . | -10 | ? | -0.4% | . | . | -0.5
[10] COc1ccc(C(CC(=O)O)NC(=O)c2cccs2)cc1 (centres undefined)
 : 12% | 14 | -2.9% | -4.6% | -2 | 0.9 | -1.3

Value order – Sfp inh | TRPML1 blocker | PINK1 expr mod | ClpP mod | TRPV1 PAM | Menin MLL FP FL | TRPML1 ag
[11] CC(=O)/C(=N/Nc1ccccc1Cl)Sc1nnc(C(O)c2ccccc2)n1-c1ccccc1 (centres undefined)
 : -11% | 26 | 1.5% | -8.2% | -5 | 1.1 | -0.1
[12] CCOC(=O)c1cc(C(=O)c2cc(F)ccc2O)coc1=N
 : -5% | -5 | 0.5% | -22% | -3 | -1.2 | -1.0
[13] O[C@@H](c1cc(C(F)(F)F)nc2c(C(F)(F)F)cccc12)[C@H]1CCCCN1
 : ? | -4 | -1.1%&-1.2% | 0.8%&-1.2% | -13 | 3.1 | 4.4&3.3
[14] CCc1cccc(NC(=O)C(CC(C)C)NS(=O)(=O)c2ccc3c(c2)oc(=O)n3C)c1 (centres undefined)
 : . | 3 | 0.0% | 0.1% | . | . | 0.4
[15] COc1ccc(/C=C2/C(=O)N(c3cccc(F)c3)N=C2C)c(OC)c1
 : 2% | 0 | -0.8% | -5.1% | 1 | -3.2 | 0.2
[16] C/C(=N\Nc1nc(Nc2ccccc2)nc(N2CCOCC2)n1)c1cccs1
 : -5% | 17 | -2.0% | 1.4% | -11 | -2.2 | -0.6
[17] CN(C)/C=C/C(=O)c1ccc(-c2ccc(Cl)cc2Cl)o1
 : -22% | 24 | -0.1% | 0.9% | -10 | 21 | -1.4
[18] CCC1CCCCN1C(=O)c1ccc(OC2CCN(C(=O)CCOC)CC2)cc1 (centres undefined)
 : 15% | 10 | -0.1% | -0.8% | 7 | . | -0.4
[19] CCOC(=O)Cn1c(=O)oc2cc(S(=O)(=O)NCCCc3ccccc3)ccc21
 : 13% | -13 | 4.3% | 1.7% | ? | 0.1 | -0.8
[20] COc1cc(OC)cc(C(=O)NC(C(=O)NNC(=O)CN(C)S(=O)(=O)c2ccc(C)cc2)C(C)C)c1 (centres undefined)
 : . | -1 | 2.7% | -0.2% | . | . | -0.7

Value order – Sfp inh | TRPML1 blocker | PINK1 expr mod | ClpP mod | TRPV1 PAM | Menin MLL FP FL | TRPML1 ag
[21] Cc1ccnc(NS(=O)(=O)c2cccs2)c1
 : 5% | 5 | . | -15% | -1 | 3.2 | -0.2
[22] CCCCN(C(=O)NCCCCCCNC(=O)N(CCCC)C1CCS(=O)(=O)C1)C1CCS(=O)(=O)C1 (centres undefined)
 : 6% | 8 | 0.8% | -3.0% | 11 | . | 0.7
[23] O=C1CC(N2CCN(c3ccc(O)cc3)CC2)C(=O)N1c1ccc2c(c1)OCO2 (centres undefined)
 : 40µM* | 14 | 2.6% | . | 5 | 4.9 | 0.1
[24] COc1ccc2[nH]c(CN3CCN(CC=C(C)C)C(CCO)C3)c(C)c2c1 (centres undefined)
 : 7% | 11 | -0.1% | -0.8% | 13 | 0.6 | 0.6
[25] O=S(=O)(O)c1ccc(N=NNc2ccc(Br)cc2)cc1
 : 13% | 28 | 0.2% | -1.6% | 4 | -4.1 | -0.8
[26] Cc1cc(C)cc(C(=O)Nc2nnc(SCC(=O)N3CCCc4ccccc43)s2)c1
 : 13% | -3 | -0.9% | -3.2% | -4 | -1.2 | 2.4
[27] CO/N=C(\c1ccccc1)c1cccnc1
 : 12% | 37 | 1.7% | -0.4% | -1 | -1.0 | 1.2
[28] CSc1ccccc1NC(=O)Cc1ccccc1
 : 19% | -1 | 3.1% | 0.5% | -1 | 0.1 | -0.1
[29] CCOC(=O)c1cc(S(=O)(=O)N2CCN(c3ccc(F)cc3)CC2)[nH]n1
 : . | -13 | 0.8% | -1.2% | . | . | 0.8
[30] Cc1ccc(Nc2nc(N)c([N+](=O)[O-])c(NCc3ccco3)n2)cc1C
 : -7% | 0 | 9.9% | 1.7% | -8 | 2.9 | 0.6

Exported with each value named: two of the compounds above
22. CCCCN(C(=O)NCCCCCCNC(=O)N(CCCC)C1CCS(=O)(=O)C1)C1CCS(=O)(=O)C1 (centres undefined)
  Sfp inh: 6%; TRPML1 blocker: 8; PINK1 expr mod: 0.8%; ClpP mod: -3.0%; TRPV1 PAM: 11; Menin MLL FP FL: .; TRPML1 ag: 0.7

23. O=C1CC(N2CCN(c3ccc(O)cc3)CC2)C(=O)N1c1ccc2c(c1)OCO2 (centres undefined)
  Sfp inh: 40µM*; TRPML1 blocker: 14; PINK1 expr mod: 2.6%; ClpP mod: .; TRPV1 PAM: 5; Menin MLL FP FL: 4.9; TRPML1 ag: 0.1

(cont.)
Value order – Sfp inh | TRPML1 blocker | PINK1 expr mod | ClpP mod | TRPV1 PAM | Menin MLL FP FL | TRPML1 ag
[31] CCc1ccc(NC(=O)CCC(=O)Nc2nnc(C(C)C)s2)cc1
 : 20% | -3 | 3.6% | -1.0% | -1 | -0.7 | 0.5
[32] NNC(=O)COc1ccc(C2SCCS2)cc1
 : 4% | -15 | -1.1% | -2.8% | -11 | 8.2 | -0.7
[33] CCCc1cc(=O)[nH]c(SCC(=O)Nc2ccccc2C#N)n1
 : -4% | 9 | 0.5% | 0.9% | 12 | 1.1 | -1.1
[34] Cc1ccccc1C(=O)NNC(=O)c1ccncc1
 : 16% | -4 | 0.1% | -0.1% | 3 | 3.2 | 0.7

Given with one line to a screen: entries from further up
19: CCOC(=O)Cn1c(=O)oc2cc(S(=O)(=O)NCCCc3ccccc3)ccc21
20: COc1cc(OC)cc(C(=O)NC(C(=O)NNC(=O)CN(C)S(=O)(=O)c2ccc(C)cc2)C(C)C)c1 (centres undefined)
21: Cc1ccnc(NS(=O)(=O)c2cccs2)c1
22: CCCCN(C(=O)NCCCCCCNC(=O)N(CCCC)C1CCS(=O)(=O)C1)C1CCS(=O)(=O)C1 (centres undefined)
23: O=C1CC(N2CCN(c3ccc(O)cc3)CC2)C(=O)N1c1ccc2c(c1)OCO2 (centres undefined)
24: COc1ccc2[nH]c(CN3CCN(CC=C(C)C)C(CCO)C3)c(C)c2c1 (centres undefined)
25: O=S(=O)(O)c1ccc(N=NNc2ccc(Br)cc2)cc1
26: Cc1cc(C)cc(C(=O)Nc2nnc(SCC(=O)N3CCCc4ccccc43)s2)c1
27: CO/N=C(\c1ccccc1)c1cccnc1
28: CSc1ccccc1NC(=O)Cc1ccccc1

Compound	19	20	21	22	23	24	25	26	27	28
Sfp inh	13%	.	5%	6%	40µM*	7%	13%	13%	12%	19%
TRPML1 blocker	-13	-1	5	8	14	11	28	-3	37	-1
PINK1 expr mod	4.3%	2.7%	.	0.8%	2.6%	-0.1%	0.2%	-0.9%	1.7%	3.1%
ClpP mod	1.7%	-0.2%	-15%	-3.0%	.	-0.8%	-1.6%	-3.2%	-0.4%	0.5%
TRPV1 PAM	?	.	-1	11	5	13	4	-4	-1	-1
Menin MLL FP FL	0.1	.	3.2	.	4.9	0.6	-4.1	-1.2	-1.0	0.1
TRPML1 ag	-0.8	-0.7	-0.2	0.7	0.1	0.6	-0.8	2.4	1.2	-0.1

29: CCOC(=O)c1cc(S(=O)(=O)N2CCN(c3ccc(F)cc3)CC2)[nH]n1
30: Cc1ccc(Nc2nc(N)c([N+](=O)[O-])c(NCc3ccco3)n2)cc1C

Compound	29	30
Sfp inh	.	-7%
TRPML1 blocker	-13	0
PINK1 expr mod	0.8%	9.9%
ClpP mod	-1.2%	1.7%
TRPV1 PAM	.	-8
Menin MLL FP FL	.	2.9
TRPML1 ag	0.8	0.6

High-throughput results as filed in PubChem BioAssay.
